# Menin-MLL FL inh: displaces fluorescein MLL peptide from human menin; Fluorescence polarization, fluorescein-MLL peptide displacement from menin; FP activity change, % at 61.4 µM; 290,000 tested, under 10 active; inconclusive = falling polarisation curve, or a change in total fluorescence; inactive = total fluorescence flat and polarisation flat or rising; no compound was filed as active; the % refers to the polarisation; negative = inhibition;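 note: % of control where 0% means no effect; inhibitors lower the polarisation; unlabelled MLL peptide was the positive control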
# TRPV1 PAM: enhances activation of the human vanilloid receptor TRPV1. TRPV1-expressing cells, Fluo-8 calcium influx, capsaicin EC20 potentiation; host cell line not named in the record; control for the full effect not named in the record. potentiation, % at 8.33 µM. 320,000 compounds, 0.02% hits; active means potentiation above 80%; inconclusive means 30% to 80%; inactive means below 30%; note: 0% is about no effect
# Target sequence (Q8NER1 whole entry, looked up): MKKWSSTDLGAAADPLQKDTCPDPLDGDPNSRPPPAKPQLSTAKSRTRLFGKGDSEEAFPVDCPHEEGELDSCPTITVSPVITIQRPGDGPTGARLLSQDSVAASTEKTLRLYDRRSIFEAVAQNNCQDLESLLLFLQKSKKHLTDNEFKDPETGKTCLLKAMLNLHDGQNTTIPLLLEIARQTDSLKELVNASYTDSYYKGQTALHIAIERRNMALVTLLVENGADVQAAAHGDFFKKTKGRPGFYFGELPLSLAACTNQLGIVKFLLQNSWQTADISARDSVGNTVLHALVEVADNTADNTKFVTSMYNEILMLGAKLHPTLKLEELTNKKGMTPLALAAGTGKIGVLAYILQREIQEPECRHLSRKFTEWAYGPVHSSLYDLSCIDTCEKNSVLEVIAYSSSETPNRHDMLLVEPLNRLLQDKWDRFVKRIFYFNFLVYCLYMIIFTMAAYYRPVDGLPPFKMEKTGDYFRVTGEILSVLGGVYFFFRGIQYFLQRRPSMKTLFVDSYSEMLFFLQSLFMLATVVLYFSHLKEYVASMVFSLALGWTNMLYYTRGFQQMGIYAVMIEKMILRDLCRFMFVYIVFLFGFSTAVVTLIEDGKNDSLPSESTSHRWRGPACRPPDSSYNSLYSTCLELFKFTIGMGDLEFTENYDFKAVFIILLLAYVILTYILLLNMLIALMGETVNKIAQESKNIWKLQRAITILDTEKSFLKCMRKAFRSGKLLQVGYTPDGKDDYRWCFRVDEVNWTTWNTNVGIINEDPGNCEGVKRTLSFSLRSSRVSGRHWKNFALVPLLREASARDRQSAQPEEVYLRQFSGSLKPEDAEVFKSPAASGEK
#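 Fluo-8 calcium influx in TRPV1-expressing cells, kinetic read (ex 480/em 520 nm). Compound added and read 3 min for agonist activity, followed by capsaicin at EC20 final and 2 min further read for enhancement.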
# Sfp PPTase inh: Sfp phosphopantetheinyl transferase inhibition | AID 1490 | 310,000 compounds, 3.5% hits | Biochemical Sfp PPTase activity, qHTS | Potency, µM, without a hit: max response, negative = inhibition, usual class: inhibitors; active = well fitted inhibition curve with a large enough effect; inconclusive = small, poorly fitted or top-dose-only effect, or another doubt; inactive = no such curve, though single readings can be large or run the other way;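 note: the enzyme is Sfp with the accession as filed and its product quenches rhodamine fluorescence; potency is the fitted concentration of half-maximal effect; 0% = enzyme reaction without inhibitor and -100% = no enzyme wells; top concentration of the series not given in the record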
#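 With Hepes-Na pH 7.6 buffer containing 10 mM MgCl2, Sfp (15 nM) modified BHQ-2-YbbR (12.5 uM) using rhodamine-CoA (5 uM). Two reads 30 minutes apart at 525/598 nm yielded each well's rate.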
# ClpP mod: qHTS Assay for Activators of ClpP; ATP-dependent Clp protease proteolytic subunit (Bacillus subtilis (strain 168)), P80244; purified B. subtilis ClpP, FRET peptide cleavage, 20 min; Potency, µM (highest dose often 57.5 µM), for inactives: at the highest dose activity change, negative = active; 340,000 compounds, 1.9% hits; active = well fitted falling curve with a large enough effect; inconclusive = small, poorly fitted or top-dose-only effect; inactive = no such curve, though single readings can be large or run the other way; note: potency is the fitted concentration of half-maximal effect; the source files actives as falling curves though it sought activators and does not explain the sign; nearly all actives have a fitted effect of over 65% in size; many hits overshoot -100%
# Target sequence (P80244 whole entry, looked up): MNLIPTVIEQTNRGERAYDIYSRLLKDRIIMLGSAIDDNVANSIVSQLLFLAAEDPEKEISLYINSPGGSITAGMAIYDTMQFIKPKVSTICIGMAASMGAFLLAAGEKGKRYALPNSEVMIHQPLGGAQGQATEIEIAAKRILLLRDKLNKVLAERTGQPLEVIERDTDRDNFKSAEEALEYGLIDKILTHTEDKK
#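 ClpP 10 microg/mL final, pH 8 Tris/KCl buffer with BSA, glycerol, Tween-20; compound pinned in; FRET-FV substrate; RT 20 min; Ex320/Em430; ΔFRET vs ADEP 5.8 microM, DMSO, no enzyme.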
# TRPML1 blocker: human mucolipin-1 channel inhibition; 390,000 compounds, 0.02% hits; Q9GZU1; activity change, negative = inhibition, % (no concentration beside the values); AID 624415; TRPML1-inducible cells, Ca2+ dye fluorescence, FDSS; active compounds read low; inhibition of EC80 agonist-evoked calcium signal; in the data active means activity change below about -50%; inconclusive means about -30% to -50%; inactive means above about -30%;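 note: stimulus is agonist 54-4 at its EC80 concentration; % is set by controls: 0 for no effect and ±100 for the full control effect; compound concentration not given in the record; the text of the record puts the active cut at -80%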
#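 TRPML1-DL cells, Tet-induced overnight (~16 h, 37 °C) at 1,500 cells/well, were loaded with Ca8 no-wash dye plus quencher for 45-90 min at room temperature. Compounds were pinned during FDSS kinetic reading; agonist 54-4 at EC80 (4 uM final) then added.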
# PINK1 modulator: PINK1 expression modulation; PINK1 immunofluorescence, high-content cytometry, 24 h; Potency, µM (highest dose often 76.6 µM), for the others: at the highest dose activation (PINK1 increase), hits mostly activators; 410,000 compounds, 0.2% hits; AID 624263; active = well fitted activation curve with a large enough effect; inconclusive = small, poorly fitted or top-dose-only effect; inactive = flat fitted curve, though single readings scatter; cell line not stated here;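 note: potency is the fitted concentration of half-maximal effect; % of control where 0% means no effect; nearly all actives have a fitted effect of over 65% in size; a mitochondrial uncoupler was the plate control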
#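 Readout is PINK1 immunofluorescence, quantified alongside mitochondrial, cell and nuclear markers by laser-scanning microplate cytometry. Cells from a stable line were exposed to compound titrations (5 concentrations) for 24 hours, with CCCP controls.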
# TRPML1 agonist: agonists of human TRPML1 channel | AID 624414 | activation, % (test concentration not listed) | 410,000 compounds, 0.12% hits | TRPML1-expressing cells, Ca2+ dye fluorescence, FDSS; host cell line not named in the record; reference of the full effect not given here | Q9GZU1; in the data active = activation above about 50%; inconclusive = about 30% to 50%; inactive = below about 30%; note: 0% is about no effect; the text of the record puts the active cut at 80%
#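 In this qHTS format, compounds were pin-transferred onto Ca8-dye-loaded TRPML1-DL cells induced with Tet overnight, and intracellular Ca2+ fluorescence was recorded kinetically for 110 s after a 10 s baseline. A subsequent 4uM final 54-4 (EC80) addition followed by a second 110 s read served as the antagonist phase.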
# Active calls of the source: *; ? = inconclusive; · = no result given; & = joins results of further samples; [ ] = remark or other dose. An unsorted share of the library (roughly 4.4% active in at least one column).
SMILES,Menin-MLL FL inh,TRPV1 PAM,Sfp PPTase inh,ClpP mod,TRPML1 blocker,PINK1 modulator,TRPML1 agonist
CCNC(=O)CC1C(=O)N(c2ccccc2)C(=O)N1CCOC (stereo not given),-5.9,5,26%,·,10,5.9%,0.0
COc1ccc(NC(=O)CSc2c(C)n[nH]c2C)cc1,0.4,-1,7%,-11%,2,15%[38.3 µM],1.8
CC(C)(C)c1ccc(OC(=O)c2ccccc2)cc1,2.6,-6,?,·,-6,12%,1.4
COc1ccc(S(=O)(=O)N(C)c2ccc(C(=O)N3CCC(C(N)=O)CC3)cc2)cc1,-0.1,8,20%,-0.5%,-3,-1.8%,-0.5
NNC(=O)C1C(O)CCC2CN3CCc4c([nH]c5ccccc45)C3CC21 (stereo not given),·,·,·,-16%,-5,-4.4%,0.9
O=C(CSc1nnc2c(n1)[nH]c1ccccc12)Nc1ccc2c(c1)OCO2,-0.6,-4,45µM*,-0.9%,-5,9.1%[38.3 µM],-0.6
c1ccc(Oc2ccc(-c3ccnc4nc(N5CCN(c6ccccc6)CC5)nn34)cc2)cc1,-1.2,-14,-1%,-9.7%,8,·,-0.3
CC(=O)c1ccc(NC(=S)NCCc2ccc(S(N)(=O)=O)cc2)cc1,0.0,8,12%,-0.1%,-22,4.0%,-0.1
Cc1ccc(NC(=O)Cn2nc(-c3ccccc3Cl)ccc2=O)c(Br)c1,-0.8,-25,-27%,1.9%,5,0.3%,-0.7
CC1CCCN(Cc2nc(Cc3ccccc3Cl)no2)C1 (stereo not given),0.9,-21,-5%,·,2,4.5%,-0.3
CCOc1ccccc1N1CC(C(=O)Nc2ccc3c(c2)OCCO3)CC1=O (stereo not given),-0.5,2,16%,7.9µM*,-9,0.6%,0.4
COC(OC)c1ccnc(-c2ccc(OC(C)=O)cc2)n1,2.5,-8,11%,·,5,-1.9%,0.7
Cc1ccc(NC(=O)CSc2nnc(-c3cc4occc4n3C)n2-c2ccccc2C)cc1F,·,·,·,-6.4%,-8,-0.3%,1.1
O=C(CCNC(=O)c1ccc(Br)cc1)NCc1ccncc1,·,-5,·,-15%,5,-0.1%,0.5
O=C(NCc1n[nH]c(=S)n1-c1ccccc1)c1cccs1,-0.4,5,5%,·,2,-0.5%,0.7
COCCn1nnnc1C(c1cc2cccc(C)c2[nH]c1=O)N1CCN(c2ccccc2F)CC1 (stereo not given),1.6,-3,14µM*,-7.9%,6,-1.4%,0.4
COC(=O)c1cc(OC)c(OC)cc1NC(=O)c1cnccn1,3.0,8,11%,·,·,·,·
Cc1cc(C(=O)CCl)c(C)n1CCc1ccccc1,2.4,14,20µM*,·,24,-1.7%,-1.1
Cc1cccc(NC(=O)Nc2nnc([C@H]3C[C@H](O)[C@@H](CO)O3)s2)c1,·,·,·,-1.8%,-5,-1.2%,-0.1
Cc1ccccc1-n1c(C)nnc1SCc1cc(=O)oc2ccc3ccccc3c12,11,1,79µM*,?,5,-2.2%,1.4
COc1ccccc1N1CCN(C(=O)c2cc(S(=O)(=O)N3CCC(C)CC3)cn2C)CC1,·,·,·,-0.4%,11,3.5%,0.1
Cc1cc(C)nc(NC(=S)Nc2cccc(Cl)c2Cl)c1,0.8,6,-8%,0.9%,-27,5.5%,2.3
O=C(CCCc1nc(-c2ccc(Cl)cc2)no1)NCc1ccco1,·,·,·,0.5%,-15,-1.0%,2.0
O=C(COC(=O)c1ccc(O)cc1O)Nc1ncc(Cl)cc1Cl,·,6,·,0.6%,-7,4.4%,1.1
O=C(COC(=O)CNC(=O)C1CCCCC1)NCc1ccc(Cl)cc1,·,·,·,0.0%,-13,-1.0%,-0.3
Cn1ccc2c(-c3ccc(C(F)(F)F)cc3)cc3c(c21)C1CCC3C1 (stereo not given),·,·,·,5.0%,·,0.7%,-0.1
CC(C)N1CCc2c(sc(NC(=O)c3ccc4ccccc4c3)c2C(N)=O)C1,·,-14,-13%,-8.4%,1,11%,9.1
Cc1ccccc1Cn1c2ccccc2c2cnn(CC(=O)NCc3ccco3)c(=O)c21,1.2,-2,-9%,-7.9%,·,3.8%,·
COc1ccc([N+](=O)[O-])cc1NC(=O)COC(=O)/C=C/c1ccco1,0.2,-5,-26%,1.1%,9,13%,0.3
Cn1c(=O)c2c(ncn2CC(=O)OCC(=O)c2ccc(Cl)cc2)n(C)c1=O,·,-2,·,1.2%,-1,-1.3%,-0.5
O=C(COC(=O)C1(c2ccccc2)CC1)NNC(=O)c1ccccc1F,·,-3,·,0.5%,2,0.2%,-0.6
COc1ccc(C2c3sc(=O)[nH]c3SC3C(=O)N(c4ccccc4)C(=O)C32)cc1 (stereo not given),3.4,?,-10%,-0.7%,10,-4.4%,0.7
COC(=O)c1cc(NS(=O)(=O)c2ccc3c(c2)CCC(=O)N3)cc(C(=O)OC)c1,4.6,4,29%,-22%,13,11%[38.3 µM],0.5
O=C(c1cc(C2CC2)nn1-c1ccccc1)N1CCN(Cc2c(F)cccc2Cl)CC1,·,-22,·,-0.8%,-6,?,1.9
O=C(NCc1ccc(Cl)cc1)c1cc(S(=O)(=O)N2CCCCC2)c[nH]1,0.9,?,1%,0.5%&-0.9%,0&-1,1.8%&-1.3%,-1.2&1.8
COc1ccc(N2C(=O)C(CN3CCCCC3)C2c2ccccc2)cc1 (stereo not given),-3.0,-14,-6%,-0.7%,0,-0.3%,-0.5
COC(=O)c1c(NC(=O)CN2CCC3(O)CCCCC3C2c2ccc(OC)cc2OC)sc(C)c1C (stereo not given),-22,1,20µM*,-8.0%,39,-1.7%,0.0
O=c1c([N+](=O)[O-])c(NCCN2CCCCCC2)c2ccccc2n1-c1ccccc1,0.9,2,-13%,-1.2%,-10,1.1%,1.3
CCOC(=O)c1cccc(NC(=O)CC(c2cc(OC)c(OC)c(OC)c2)N2Cc3ccccc3C2=O)c1 (stereo not given),·,·,·,-3.4%,-13,-4.8%,2.1
CCOC(=O)c1c(NC(=O)CC)sc2c1CCN(Cc1ccccc1)C2,-0.6,-5,-18%,-17%,54,2.3%,0.0

# Six entries from above, tab-delimited:
Compound	Menin-MLL FL inh	TRPV1 PAM	Sfp PPTase inh	ClpP mod	TRPML1 blocker	PINK1 modulator	TRPML1 agonist
COc1ccc(N2C(=O)C(CN3CCCCC3)C2c2ccccc2)cc1 (stereo not given)	-3.0	-14	-6%	-0.7%	0	-0.3%	-0.5
O=C(COC(=O)c1ccc(O)cc1O)Nc1ncc(Cl)cc1Cl	·	6	·	0.6%	-7	4.4%	1.1
O=C(CCCc1nc(-c2ccc(Cl)cc2)no1)NCc1ccco1	·	·	·	0.5%	-15	-1.0%	2.0
COc1ccc([N+](=O)[O-])cc1NC(=O)COC(=O)/C=C/c1ccco1	0.2	-5	-26%	1.1%	9	13%	0.3
CCOC(=O)c1c(NC(=O)CC)sc2c1CCN(Cc1ccccc1)C2	-0.6	-5	-18%	-17%	54	2.3%	0.0
O=C(c1cc(C2CC2)nn1-c1ccccc1)N1CCN(Cc2c(F)cccc2Cl)CC1	·	-22	·	-0.8%	-6	?	1.9

# Next section:
SMILES,Menin-MLL FL inh,TRPV1 PAM,Sfp PPTase inh,ClpP mod,TRPML1 blocker,PINK1 modulator,TRPML1 agonist
Cc1cc(C)cc(C(=O)Nc2ccc3[nH]c(=O)[nH]c3c2)c1,-3.2,11,17%,·,0,-0.1%,1.4
C[C@H](CO)N1C[C@H](C)[C@H](CN(C)S(C)(=O)=O)Oc2c(cccc2N(C)C)C1=O,·,·,·,-1.6%,3,0.1%,-0.1
C=CCC[C@H](Cc1ccc(F)cc1)C(=O)OC[C@@H](C)NC(=O)[C@@H](CC=C)CC(=O)N[C@H](CO)Cc1ccccc1,·,·,·,-2.4%,9,-0.3%,-0.4
O=C(NCCS(=O)(=O)N1CCN(c2ccccc2)CC1)c1ccc(Br)o1,·,-1,·,?,26,-1.3%,-0.5
CCOC(=O)c1sc2nc(C3CC3)cc(-c3ccc(F)cc3)c2c1N,-0.8,20,-11%,?,-1,1.3%,-1.0
C=C1CCN(C(C(=O)OC)C(C)C)S(=O)(=O)c2ccccc21 (stereo not given),-1.5&1.8,-16,12%&7%,-5.2%,-2&1,0.1%,1.7&0.1
COc1ccc(Cl)cc1-c1nc(N)nc(N(C)C)n1,6.0,3,26%,0.6%,-1,1.7%,-0.2
CC1(C)Cc2c(c(N3CCOCC3)nc3sc4c(NN)ncnc4c23)CS1,-0.8,4,22%,?,-10,1.8%,-0.4
Cc1ccc(NC(=O)Cn2nc(-c3ccc(F)cc3)c3cnc4ccc(C)cc4c32)cc1,·,·,·,0.1%,52,12%,0.3
COC(=O)C1CCN(C(=O)C2CCN(C(=O)[C@@H](NS(=O)(=O)c3ccc(C)cc3)C(C)C)CC2)CC1,5.4,-25,11%,-1.3%,0,0.3%,-0.4
CCN1CCN(c2c(Cl)cccc2NC(=O)c2ccc([N+](=O)[O-])cc2)CC1,3.7,-3,14%,-0.7%,28,0.2%,0.4
CC(=O)c1ccc(N(C(=O)c2ccco2)C(C(=O)NC2CCCC2)c2ccc(N3CCOCC3)cc2)cc1 (stereo not given),-0.2,-18,13%,·,12,1.4%,-0.6
COc1ccccc1C1NC(c2ccc3c(c2)OCO3)=CC(c2ccccc2O)N1 (stereo not given),·,·,·,-13%,·,1.9%,-0.8
CCCCC(=O)N(C)c1c(CC)nc2c(OCC3CCCCC3)cccn12,·,·,·,-0.2%,·,1.1%,0.0
Cc1ccc(-n2c(SCC(=O)NC3CCS(=O)(=O)C3)nc3ccccc3c2=O)cc1 (stereo not given),0.4,2,7%,·,1,0.7%,-0.5
CCOC(=O)CC(NC(=O)Cn1nnc(-c2ccc(C(F)(F)F)cc2)n1)c1ccccc1Cl (stereo not given),·,·,·,1.9%,6,12%,1.6
CC(=O)Nc1ccc(S(=O)(=O)N(C)c2ccc(OCC(=O)OCC(=O)N3CCCCC3)cc2)cc1,4.1,18,16%,-11%,4,3.2%,-0.8
COc1ccc(N2C(=O)[C@@H]3[C@H](C2=O)[C@H]2c4ccccc4C=CN2[C@@H]3C(=O)Nc2ccccc2)cc1,?,-1,-5%,-1.3%,6,-4.1%,-1.0

# Screening data (PubChem BioAssay)
